VDR inhibitor: vitamin D3 receptor (human) inhibition; P11473; VDR-SRC2-3 peptide fluorescence polarization, 2 h; Potency, µM, for the others: max response, negative = inhibition, most hits filed as inhibitors; 400,000 tested, 0.93% active; active means well fitted inhibition curve with a large enough effect; inconclusive means small, poorly fitted or top-dose-only effect, or another doubt; inactive means no such curve, though single readings can be large or run the other way; further: series mostly up to about 120 µM
Target sequence (P11473 whole entry, looked up): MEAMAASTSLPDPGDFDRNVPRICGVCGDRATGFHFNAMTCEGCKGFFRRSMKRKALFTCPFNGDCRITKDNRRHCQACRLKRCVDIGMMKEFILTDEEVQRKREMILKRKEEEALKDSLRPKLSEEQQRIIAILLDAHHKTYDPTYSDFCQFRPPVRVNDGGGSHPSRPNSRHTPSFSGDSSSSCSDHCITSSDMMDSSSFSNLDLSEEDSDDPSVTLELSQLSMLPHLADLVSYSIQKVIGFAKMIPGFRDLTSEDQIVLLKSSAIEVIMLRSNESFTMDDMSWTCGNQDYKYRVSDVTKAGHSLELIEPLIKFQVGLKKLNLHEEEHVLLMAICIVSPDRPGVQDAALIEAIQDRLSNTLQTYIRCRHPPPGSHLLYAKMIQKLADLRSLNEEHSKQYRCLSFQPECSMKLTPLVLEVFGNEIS
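Signal is fluorescence polarization, reporting how far test compounds block the interaction of VDR with the SRC2-3 coregulator peptide after a 2 h room-temperature incubation.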
Active calls of the source: *; ? = inconclusive; & = joins results of further samples; [ ] = another dose, or the depositor's remark. On the % scale 0 is the no-effect control and ±100 the full control effect; potency means the concentration at half of the fitted maximal effect.

# | SMILES | VDR inhibitor
1 | CCCCCCSc1ccc(-c2nc3ccccn3c2NCCCC)cc1 | -2.3%
2 | CCc1nnc(NC(=S)Nc2ccccc2)s1 | -2.1%
3 | CC(=O)NCCNC(=O)c1ccc2c(c1)S(=O)(=O)c1ccccc1C2=O | 6.9%
4 | COc1ccc(C2CC(O)(c3ccccc3)Oc3cc(C)c(Cl)c(C)c32)cc1 (configuration not stated) | -14.7%
5 | CCCN(CCC)S(=O)(=O)c1ccc(C(=O)Nc2sc3c(c2C(=O)OC)CCN(CC)C3)cc1 | -1.4%
6 | CC1CCN(S(=O)(=O)c2csc(C(N)=O)c2)CC1 | 10.4%
7 | Cc1cc(NC(=O)/C=C/C(=O)N(CC(=O)NC2CCCC2)c2ccc(F)cc2)no1 | -7.5%
8 | Cc1cc(C)c(C)c(OCC(=O)O/N=C(\N)c2ccncc2)c1 | 7.8%
9 | Nc1c(C(=O)N2CCOCC2)sc(=S)n1-c1ccccc1 | 50.1µM*
10 | C#CCOCCOCCOCCNc1nc(N2CCOCC2)nc(N2CCN(C(=O)[C@H]([C@@H](C)CC)n3cc([C@@H](N)CC(C)C)nn3)CC2)n1 | -14.7%
11 | Cc1ccc(S(=O)(=O)/N=C(/c2ccccc2)N(C)c2ccc(O)cc2)cc1 | 4.6%
12 | Cc1[nH]cc(Br)c(=O)c1Oc1ncc(C(F)(F)F)cc1Cl | 7.7%
13 | S=C(NC1CCCC1)NC1CCCC1 | 5.2%
14 | Cc1ccc(CC(=O)Nc2ccc(Cl)cn2)cc1 | -13.5%
15 | Cn1ccc(C(=O)Nc2sc3c(c2C#N)CCC3)n1 | 3.3%
16 | COc1ccc(F)cc1C(=O)C1CCCN(C(=O)C2=C(C)OCCO2)C1 (configuration not stated) | 9.4%
17 | CC(/C=N/N1CCN(c2ccccc2)CC1)=C\c1ccco1 | 7.0%
18 | CCN=c1sc(C(=O)NCCc2ccccc2)cc(=O)n1CC | ?
19 | CCc1nn(CC(=O)N2CCCCC2)c(=O)c2cc3occc3n12 | 15.2%
20 | O=S1(=O)NCC23CCC(CC21)O3 (configuration not stated) | -5.0%
21 | COC(=O)CN(c1ccc(C)cc1)S(=O)(=O)c1c(C)[nH]c(=O)[nH]c1=O | -18.8%
22 | O=S(=O)(/C=C/c1ccccc1)N1CCN(c2nc(-c3cccnc3)nc3ccccc23)CC1 | 44.5%[activator]
23 | Cc1cc(Nc2ccc(C(C)C)cc2)nc(-n2nc(C)cc2C)n1 | -11.9%
24 | Cc1nc(/C=C\C(=O)O)c2cc(C)oc2n1 | 11.5%
25 | Cc1ccc(S(=O)(=O)c2nc(S(=O)(=O)c3ccc(C)cc3)c(N3CCN(CCO)CC3)s2)cc1 | 1.6%
26 | COC(=O)c1sc(N(C)C)c(C#N)c1-c1ccccc1 | 13.9%
27 | Cc1cc(C)cc(NC(=O)CN2CCN(c3ccccn3)CC2)c1 | -5.9%
28 | O=C(NCCSc1ccc(Cl)cc1)c1ccco1 | -0.9%
29 | Cc1ccc(-c2nn(-c3cc(N4CCNCC4)ccc3[N+](=O)[O-])c(=O)c3ccccc23)cc1 | -10.2%
30 | Cn1cccc1Cc1nnc(SCC(=O)N2CCCC2)n1CCc1ccccc1 | -7.3%
31 | O=C(NCCc1ccccc1)C1CCC(CNS(=O)(=O)c2ccc(Cl)cc2)CC1 (configuration not stated) | 14.5%
32 | COc1cc(/C=N/N2CCN(Cc3ccc(Cl)cc3)CC2)ccc1OC(C)=O | -2.3%
33 | CC(NC(=O)C1CCCCC1)C(c1cccs1)N1CCOCC1 (configuration not stated) | -16.0%
34 | O=C(NNc1cc(Cl)cc(Cl)c1)c1sccc1Cl | 7.7%
35 | c1ccc(Nc2nc(N3CCCCC3)nc(N3CCNCC3)n2)cc1 | -7.5%
36 | CCN(CC)CCn1c(SCC(=O)NCc2ccco2)nc2c(sc3ccccc32)c1=O | 12.3%
37 | O=C(NCc1ccc(F)cc1)c1cc2n(n1)CCCN(Cc1ccc(F)cc1)C2=O | 1.1%
38 | S=c1[nH]nc(-c2n[nH]c3c2CCC3)n1/N=C/C=C/c1ccccc1 | -14.1%
39 | COc1ccccc1N(C)S(=O)(=O)c1ccc(C(=O)N2CCC(C(N)=O)CC2)cc1 | -7.7%
40 | Cc1ccc(-c2cc(C(=O)N3CCN(S(=O)(=O)c4ccc(Br)cc4)CC3)[nH]n2)cc1C | -3.3%
41 | CC(=O)c1ccc(OCc2cc(C(=O)N(C)C3CCOC3)no2)cc1 (configuration not stated) | -2.0%
42 | COc1ccc(NC(=O)c2cncc(Br)c2)c(S(=O)(=O)N2CCOCC2)c1 | -7.7%
43 | Cc1cc(C)cc(N2C(=O)CC(Sc3nnnn3-c3ccccc3)C2=O)c1 (configuration not stated) | 21.5%
44 | COc1ccc(C(Nc2ccc(S(=O)(=O)N3CCOCC3)cc2)C(=O)NCCC(C)C)cc1OC (configuration not stated) | -4.5%
45 | CCCN(CC1CC1)C(=O)CSc1ncnc2sccc12 | -18.5%
46 | CCOc1ccc(NC(=O)CSc2nnc3c(C)cc4ccccc4n23)cc1 | 5.9%
47 | CN(C)c1ccc(C(=S)NCc2ccco2)cc1 | ?
48 | Cc1cc2ccccc2n1-c1ccc(C(=O)N2CCCCC2)s1 | 16.0%
49 | COc1ccccc1C(=O)Nc1ccc(S(=O)(=O)Nc2onc(C)c2C)cc1 | -10.4%
50 | CC1CCN(c2c(NCC3CCC(C(=O)NCc4ccccc4)CC3)c(=O)c2=O)CC1 (configuration not stated) | -5.0%
51 | CC(=O)c1ccc(C(=O)NC2CCCN(Cc3ccc(Cl)cc3)C2)s1 (configuration not stated) | -8.6%
52 | Cc1cccc(-c2c3c(=O)n(C)c(=O)n(C)c3cn2-c2ccccc2O)c1 | 9.8%
53 | Cc1ccc(N(CC(=O)NCc2ccccc2)C(=O)CCC(=O)Nc2nccs2)cc1 | -12.0%
54 | COc1cc2ncnc(NCc3ccc(C)o3)c2cc1OC | -0.2%
55 | Oc1cccc2oc(=S)[nH]c12 | -5.6%
56 | COC(=O)c1ccccc1NC(=S)N(Cc1ccc2c(c1)OCO2)Cc1cc2ccc(OC)cc2[nH]c1=O | 2.7%
57 | O=C1CC(NCc2ccc3c(c2)OCO3)C(=O)N1CCc1ccccc1 (configuration not stated) | 17.5%
58 | CC(C)COc1ccc(C(=O)NCc2ccco2)cc1 | -0.3%
59 | CN(c1ccc(F)cc1)S(=O)(=O)c1ccc(Cl)c(C(=O)OCC(=O)NC2CC2)c1 | -18.3%
60 | COc1ccc(CCNC(=O)c2ccc3c(c2)CCN3S(=O)(=O)c2ccc(C)cc2)cc1OC | 5.4%

The list goes on.
# | SMILES | VDR inhibitor
61 | O=C(CN1CCC(Cc2ccccc2)CC1)NC(=O)NC1CCCCC1 | -8.0%
62 | CN(C)c1ccc(C2=NOC(CN3C(=O)c4ccccc4S3(=O)=O)C2)cc1 (configuration not stated) | -3.6%
63 | O=C(NNC(=O)C1CCCCC1)c1ccc(Br)cc1 | 8.6%
64 | CSc1nsc(SC)c1C(=O)Nc1ccc(Cl)cc1 | 0.6%
65 | CC(C)(C)c1cc(NCCCn2ccnc2)n2ncc(-c3ccc(Cl)cc3)c2n1 | 14.3%
66 | COc1ccc(C(CNC(=O)c2ccc(S(=O)(=O)Nc3cccc(C)c3C)cc2)N2CCOCC2)cc1 (configuration not stated) | -10.0%
67 | O=C(/C=C/c1cccs1)c1ccc([N+](=O)[O-])cc1 | -17.9%
68 | O=C1CCC(=O)N1CN(C(=O)c1ccco1)c1ccccc1 | -7.7%
69 | CN1CCN(c2ncc3nc(-c4cn(C)c5ccccc45)c(=O)n(Cc4cccs4)c3n2)CC1 | 1.7%
70 | CCOC(=O)c1c(C)nc(C)c(C(=O)OCC)c1-c1ccc(OC)cc1 | 8.7%
71 | COc1ccc(/C=C(\C#N)c2nc3ccc(C)cc3[nH]2)cc1Oc1ccc(C(F)(F)F)cc1[N+](=O)[O-] | -12.8%
72 | CC(C)C(=O)Nc1ccc(Nc2ccccc2)cc1 | 7.6%
73 | CCOC(=O)C1=NN(c2ccccc2)C2=NC(C)=C(C(=O)OC)C(c3ccc(C)cc3)N12 (configuration not stated) | -12.0%
74 | Cc1ccccc1CC1(CO)CCCN(Cc2ccccc2Cl)C1 (configuration not stated) | 0.9%
75 | O=C(c1cccc(S(=O)(=O)N2CCCCC2)c1)N1CCc2ccccc21 | 4.6%
76 | C#CCNC(=O)C1=C[C@H](c2ccc(Br)cc2)[C@@H](CCCO)[C@H](OCC)O1 | -13.5%
77 | O=C(O)Cn1cc(C(=O)C2CC2)c2ccccc21 | -2.4%
78 | O=C(NCCCCNC(=O)c1cccnc1Cl)c1cccnc1Cl | 1.8%
79 | CCN(C(=O)CSc1nnnn1-c1ccc(Cl)cc1)C1CCS(=O)(=O)C1 (configuration not stated) | -19.9%
80 | COC(=O)C1=C[C@@H](C(=O)OC)[C@@H]2C3=C(C(=O)C2(C)C)[C@H](C)n2c(=O)n(C)c(=O)n2[C@@H]3C1 | ?
81 | O=C(CSc1n[nH]c(-c2ccccc2)n1)NCCc1ccccc1 | 4.0%
82 | O=C(Cc1c(F)cccc1Cl)Nc1ccon1 | -3.0%
83 | COc1ccc(Br)cc1/C=N/NC(=O)c1nc(-c2ccccc2)n2c1CCCCC2 | 4.4%
84 | COCCNC(=O)C1Cc2c(ccc3ccccc23)O1 (configuration not stated) | -14.3%
85 | COCCn1c(SCC(=O)NCCc2ccc(OC)c(OC)c2)nc2c([nH]c3ccccc32)c1=O | -0.1%
86 | CC(O)(c1ccccc1)C(C(c1ccccc1)N1CCOCC1)N1CCOCC1 (configuration not stated) | 7.5%
87 | CC1(C)C(=O)Nc2ccccc2N1C(=O)COC(=O)Cn1cnc2ccccc2c1=O | 16.0%
88 | CC1(C)Oc2ccc(C(=O)NC3CC3)cc2N(CC(=O)N2CCOCC2)C1=O | -10.6%
89 | COc1cccc(OCCn2ccnc2)c1 | -3.3%
90 | O=[N+]([O-])c1cccc(/C=N/n2c(-c3cccnc3)n[nH]c2=S)c1 | -5.7%

Molecules shown so far containing a cyano group:
# | SMILES | VDR inhibitor
15 | Cn1ccc(C(=O)Nc2sc3c(c2C#N)CCC3)n1 | 3.3%
26 | COC(=O)c1sc(N(C)C)c(C#N)c1-c1ccccc1 | 13.9%
71 | COc1ccc(/C=C(\C#N)c2nc3ccc(C)cc3[nH]2)cc1Oc1ccc(C(F)(F)F)cc1[N+](=O)[O-] | -12.8%

Remaining list, next part:
# | SMILES | VDR inhibitor
91 | COc1ccc(NC2=C(Cl)C(=O)N(c3ccccc3)C2=O)c(OC)c1 | -8.7%
92 | O=C(Cn1cnc2c(NCc3ccccc3)ncnc21)NCCCN1CCCC1=O | -29.7%
93 | COc1ccc2c(CNCc3cccs3)c(C(=O)O)n(Cc3ccccc3F)c2c1 | 6.9%
94 | O=C(Nc1nccs1)c1cc2cc(Cl)ccc2oc1=O | 1.5%
95 | CC(=O)c1ccc(NS(=O)(=O)c2ccc3ccccc3c2)cc1 | -8.1%
96 | CC(C)[C@H](NC(=O)[C@@H]1CSSC[C@H](NC(=O)[C@H](CC(=O)O)NC(=O)[C@H](C)NC(=O)[C@@H](NC(=O)CNC(=O)[C@H](C)N)[C@@H](C)O)C(=O)N[C@@H](Cc2ccccc2)C(=O)N[C@@H](Cc2c[nH]c3ccccc23)C(=O)N[C@@H](CCCCN)C(=O)N[C@@H](Cc2ccc(O)cc2)C(=O)N1)C(=O)O | -5.4%
97 | O=c1oc(-c2cccs2)nc2ccccc12 | -27.8%
98 | O=C(c1ccc(NC(=S)Nc2ccc(F)cc2F)cc1)N1CCOCC1 | -15.1%
99 | Cc1nc(C)c(C(=O)N(c2ccc(F)cc2)C(C(=O)NCC2CCCO2)c2ccccc2)s1 (configuration not stated) | ?
100 | O=C(NCCc1ccc(Cl)cc1)C1COc2ccccc2O1 (configuration not stated) | -14.7%
101 | COc1cccc(NC(=O)CN(C)C(C)C(=O)N2CCCCC2)c1 (configuration not stated) | 20.0%
102 | Cc1cccc(C)c1NC(=O)CN(C)CC(=O)Nc1ccccc1Oc1ccccc1 | -6.3%
103 | Cc1ccc(S(=O)(=O)N2CCCC2C(=O)NCc2ccco2)cc1 (configuration not stated) | 3.8%
104 | FC(F)(F)c1cc(C(F)(F)F)c2ccc(N3CCOCC3)nc2n1 | 8.5%
105 | CC1(C)CCC(=O)N(c2ccccc2)C1=O | 5.2%
106 | O=C(N/N=C/C=C/c1ccccc1)c1cccc(Br)c1 | -10.7%
107 | COc1cc(C(=O)Nc2cc(C)ccc2OCc2cc(=O)n3c(C)csc3n2)cc(OC)c1OC | -1.2%
108 | Clc1cccc(Cl)c1CO/N=C/c1cccs1 | -3.4%
109 | c1ccc(-c2nn3c(-c4ccco4)nnc3s2)nc1 | 8.2%
110 | CN1CCN(CCc2ccc(Cl)c(Cl)c2)CC1 | 6.2%&-0.5%
111 | CCOC(=O)c1c(-c2ccc(Br)cc2)csc1NC(=O)c1ccc(C(C)(C)C)cc1 | -12.8%
112 | CC(C)(C)NC(=O)CN(Cc1ccccc1)S(=O)(=O)c1ccccc1 | -23.7%
113 | COC(=O)CN(C(=O)CSc1nnc(-c2cccc(OC)c2)o1)c1ccc(OC)cc1 | 20.7%
114 | CCCCC/C=C\C\C=C/C=C/C=C/[C@@H](SCC(N)C(=O)NCC(=O)O)[C@@H](O)CCCC(=O)O (some centres not stated) | -1.7%
115 | CCN1C(=O)/C(=C\N2CCN(C)CC2)SC1=S | 1.8%
116 | CCOC(=O)c1cnn(Cc2ccccc2Cl)c1N | 7.0%
117 | CCOc1ccccc1C(=O)Nc1cc(C(=O)NCCc2ccccc2)ccc1Cl | -8.0%
118 | COc1cc(NC(=O)CN2C(=O)COc3ccc(S(=O)(=O)N4CCCC4)cc32)cc(OC)c1 | 8.2%
119 | O=c1c2[nH]c3ccc(Cl)cc3c2ncn1Cc1ccccn1 | 5.8%
120 | Nc1nc(C2C(=O)CCCC2=O)cs1 | -6.6%
121 | Cc1ccc(-n2nnnc2SCC(=O)c2ccc3c(c2)NC(=O)CO3)c(C)c1 | 8.5%

Assay outcomes deposited in PubChem by National Center for Advancing Translational Sciences (NCATS).

Not all compounds are listed; the hit share may differ from the screen's.
